# rRNA inh HTS = inhibitors of bacterial rRNA selective over humanized ribosomes; GFP signal change (wild-type ribosome), % (test concentration not listed); hit rate 1.6% among 350,000; E. coli WT GFP vs humanized-ribosome RFP mutants, fluorescence, 24 h; active compounds read low; DMSO median 0, no signal -100;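 active = significant combined selectivity score with lowered wild-type GFP, culture density cut under 30%, mutant RFP and density less affected; inactive = any of these conditions unmet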; note: one replicate is shown; some compounds called inactive have numbers as strong as hits
# UCH37 DUB inh = blocks the human deubiquitinase UCH37. Q9Y5K5. purified proteasome/UCH37, Ub-AMC cleavage fluorescence. inhibition, % (concentration not given with the values). hit rate 0.33% among 330,000;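 active = mean of two replicates above 20%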;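 note: 0% = compound-free wells with enzyme and 100% = wells lacking proteasome; stock transfer was 100 nL into about 20 µL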
#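 system = Proteasome-associated human UCH37 deubiquitinase | amount = 0.15 nM proteasome as dispensed | medium = pH 7.4 Tris-HCl (50 mM) with ovalbumin, ATP-MgCl2, DTT | incubation = 30 min preincubation with enzyme, 25 min cleavage at room temperature | detection = AMC fluorescence 355/460 nm | read-out basis = percent inhibition | controls = no-proteasome and no-compound wells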
# FGF22 binding = binders of recombinant human FGF22 by thermal shift | hit rate 1.5% among 340,000 | calls only at 9.99 µM | AID 651658 | SYPRO orange fluorescence; percent of sucrose octasulfate shift, DMSO zero | Q9HCT0;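 active = melting point raised past a set limit in the mean and every replicate; three in four hits are not shown here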
# Target sequence (Q9HCT0 whole entry, looked up): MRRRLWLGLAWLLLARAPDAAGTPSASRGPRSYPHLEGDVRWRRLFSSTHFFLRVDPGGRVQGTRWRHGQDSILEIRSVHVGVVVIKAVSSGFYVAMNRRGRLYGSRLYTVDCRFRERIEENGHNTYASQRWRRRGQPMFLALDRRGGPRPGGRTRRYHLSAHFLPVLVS
# E coli growth = inhibitors of Escherichia coli growth. OD600, 23 h; active compounds read low. OD600 absorbance (test concentration not listed). hit rate 0.21% among 330,000. AID 1053175;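 active = OD600 absorbance below the run mean of sample wells minus 3.6 SD, in any replicate, cut at about 0.56 in these data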;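 note: stock transfer was 300 nL into about 60 µL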
# ALR H2O2 inh = blocks human ALR sulfhydryl oxidase activity | hit rate 3.8% among 290,000 | purified ALR, DTT oxidation, H2O2 HRP-luminol luminescence | inhibition, % (concentration not given with the values) | AID 485317 | P55789;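 active = mean and each replicate at 75% or more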;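 note: stock transfer was 7.5 nL into about 7.5 µL; 0% = neutral wells and 100% = wells with inactivated enzyme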
# Target sequence (P55789 whole entry, looked up): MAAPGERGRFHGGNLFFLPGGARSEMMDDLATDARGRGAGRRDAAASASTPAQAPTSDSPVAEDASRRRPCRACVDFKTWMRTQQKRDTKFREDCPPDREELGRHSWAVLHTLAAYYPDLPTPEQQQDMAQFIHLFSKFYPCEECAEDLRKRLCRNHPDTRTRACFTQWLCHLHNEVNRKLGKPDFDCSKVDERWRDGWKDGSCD
# Beta2AR agonist = agonists of human beta-2 adrenergic receptor inducing internalization; AID 504454; response, % (concentration not given with the values); hit rate 0.43% among 340,000; Am2.2-beta2AR cells, FAP receptor internalization, flow cytometry; reference of the scale not given here; P07550;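 active = response above a set limit, near 3 SD of response in nonfluorescent compounds, cut at about 42% in these data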;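 note: stock transfer was 100 nL into about 11 µL; a reference agonist was the positive control; negative values mostly stem from fluorescent compounds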
# HNF4A DNA FP = change in binding of human HNF4 alpha to DNA; AID 1224865; HNF4a-FITC DNA binding, fluorescence polarization, 1 h; P41235; activity change, % at 10 µM; hit rate 0.3% among 360,000; in the data active = activity change above about 30%, passing the limit was not always enough;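 note: controls were the assay level and a saturating level of protein; the project sought stronger binding though the title names inhibitors; some compounds called inactive have numbers as strong as hits; positive values seem to mean higher polarization but the record does not say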
# Target sequence (P41235 whole entry, looked up): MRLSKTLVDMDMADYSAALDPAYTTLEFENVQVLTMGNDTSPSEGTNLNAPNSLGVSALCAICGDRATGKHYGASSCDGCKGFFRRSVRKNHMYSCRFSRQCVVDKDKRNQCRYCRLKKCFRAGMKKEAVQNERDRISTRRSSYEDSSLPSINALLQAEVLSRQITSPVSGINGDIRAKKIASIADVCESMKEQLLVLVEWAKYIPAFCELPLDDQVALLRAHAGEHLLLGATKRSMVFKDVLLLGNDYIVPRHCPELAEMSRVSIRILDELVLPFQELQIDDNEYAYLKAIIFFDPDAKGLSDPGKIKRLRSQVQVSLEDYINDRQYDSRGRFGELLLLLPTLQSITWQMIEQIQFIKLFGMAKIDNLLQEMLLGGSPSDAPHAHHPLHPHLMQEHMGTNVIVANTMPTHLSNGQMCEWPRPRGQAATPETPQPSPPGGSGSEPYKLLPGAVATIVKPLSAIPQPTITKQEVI
# rRNA inh HTS OD600 = second read-out of rRNA inh HTS, no call of its own (marks repeat the call); OD600 change, %; measured here: OD600 growth;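 optical density of the mix in the first replicate; 0 = DMSO median and -100 = no signal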
# rRNA inh HTS RFP = recorded beside rRNA inh HTS, whose call it bears; RFP signal change, %; measured here: RFP humanized mutant strains;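 first replicate; 0 = DMSO median and -100 = no signal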
# Numbers without * were called inactive; i = inactive; / = not tested or not shown. These rows are one share of the data, so the mix of outcomes need not match the whole.
SMILES,rRNA inh HTS,rRNA inh HTS OD600,rRNA inh HTS RFP,UCH37 DUB inh,FGF22 binding,E coli growth,ALR H2O2 inh,Beta2AR agonist,HNF4A DNA FP
COc1ccccc1C(=O)NC(=O)COc1ccc([N+](=O)[O-])cc1,-5.7,-0.6,0.1,3.8,i,0.622,/,-2.2,-2.9
O=C(O)COc1ccc(/C=N/NC(=O)c2ccc(-c3csc(Nc4ccc(Cl)cc4)n3)cc2)cc1,2.9,25.0,-10.9,/,i,/,/,3.5,-91.2
CC(C)CC(CO)N1CCN(C(=O)c2ccc(Cl)cc2Cl)CCC1=O (stereo unspecified),1.2,11.5,5.8,0.6,i,0.704,-2.7,-4.6,0.7
CC(=O)C(Sc1ncnc2sc3c(c12)CCCC3)C(C)=O,-54.2,-76.4,-13.6,/,i,/,12.2,-3.4,1.6
Cc1ccc(S(=O)(=O)N2CCN(C(=O)COC(=O)CNC(=O)c3ccccc3)CC2)c(C)c1,-0.2,-0.7,0.1,6.5,i,0.697,-0.6,1.8,-3.1
O=Cc1c(Sc2ccccc2)nc2ccccn2c1=O,/,/,/,7.6,/,0.751,97.7*,10.2,1.2
S=C(NCCC(c1ccccc1)c1ccccc1)Nc1cccc(Cl)c1,/,/,/,-2.6,/,0.713,-3.6,10.5,-3.8
O=C(CSc1nnc(-c2ccncc2)n1-c1ccccc1)NCC1CCCO1 (stereo unspecified),11.9,2.9,-1.1,0.4,i,0.649,/,-0.6,4.0
COc1ccc2c(c1)CC(C)C/C2=N\NC(=O)c1ccco1 (stereo unspecified),2.5,7.9,-3.1,/,i,/,-2.8,-9.0,-1.0
O=C(CCN1C(=O)C2C3C=CC(C3)C2C1=O)Nc1ccccc1 (stereo unspecified),5.5,8.6,-1.7,0.0,/,0.636,-3.0,4.0,0.3
Cc1ccc(/C=C/c2nnc(-c3ccc(C)cc3)o2)cc1,/,/,/,0.7,/,0.698,-0.1,4.0,-2.9
COc1ccccc1CN1C(=O)c2ccncc2C1=O,13.2,0.7,-8.3,-1.4,i,0.707,/,0.9,1.3
Cc1c(C(=O)NCCC2=CCCCC2)oc2ccc(S(=O)(=O)N3CCC4(CC3)OCCO4)cc12,/,/,/,3.4,/,0.701,-6.5,8.2,1.9
Cc1nn(Cc2c(F)c(F)c(F)c(F)c2F)c(C)c1NC(=O)c1nn(C)cc1[N+](=O)[O-],/,/,/,0.4,/,0.708,2.4,-0.4,1.4
COC(=O)[C@H](Cc1ccccc1)NC(=O)NCCc1ccc(F)cc1,2.4,-2.4,0.4,8.0,i,0.712,-13.6,11.8,-3.6
COc1ccc(/C=N/Nc2nnc(Cc3ccc(OC)c(OC)c3)c(=O)[nH]2)cc1,/,/,/,/,/,/,3.3,1.9,2.2
Cc1cccc(NC(=O)COc2ccc(Br)cc2/C=N/O)c1,-43.6*,-29.2*,-7.6*,/,i,/,6.2,4.9,-1.4
Cn1ncc2c(N3CCN(c4ccc(Cl)c(Cl)c4)CC3)ncnc21,3.5,1.6,-2.6,4.5,i,0.701,-3.5,5.3,-0.5
CCOCCCn1cnc2c(c1=O)c1nc3ccccc3nc1n2-c1ccccc1,20.4,14.3,-7.4,-93.5,i,0.665,/,-30.3,-1.9
O=C(O)c1cc(-c2ccccc2)n(-c2ccccc2C(=O)O)n1,/,/,/,0.4,/,0.709,/,0.3,0.1
CCC(C)c1ccc(O)c(NC(=O)c2cncc(Br)c2)c1 (stereo unspecified),-6.9,-4.1,-0.3,3.8,i,0.689,5.2,0.2,3.1
CCn1c(N)c(C(=O)NC2CCCCC2)sc1=S,/,/,/,8.8,/,0.694,98.2*,-3.6,4.4
Cc1ccc(C2=NN(C(=S)Nc3ccccc3)C(c3ccco3)C2)cc1 (stereo unspecified),/,/,/,-2.3,/,0.74,-2.1,-0.9,-0.6
O=C(Nc1ccc(CN2CCOCC2)cc1)c1cc(Cl)ccc1Cl,6.4,3.7,-9.0,4.1,i,0.689,-6.2,2.0,-2.8
O=C(/C=C/c1ccco1)OCc1nnc(-c2ccc(Cl)cc2)o1,13.8,23.6,8.2,3.6,i,0.668,18.0,-0.2,-2.0
CC(=O)c1cnc(Nc2cccc(Cl)c2Cl)s1,1.9,-2.2,-0.5,4.8,i,0.7,-7.0,0.2,1.1
O=c1[nH]c(COc2ccc(Br)cc2Cl)nc2ccccc12,-0.1,-0.3,-4.7,-1.9,i,0.684,-15.2,-12.2,0.3
Cc1ccc(S(=O)(=O)N(CC(=O)NCc2ccco2)c2ccccc2C)cc1,-15.9,-20.4,3.8,-0.6,i,0.653,5.1,1.8,1.1
CC(C)NC(=O)C1CCN(Cc2cccc(Oc3ccccc3)c2)CC1,3.7,2.6,0.5,0.6,i,0.67,-2.4,-9.3,1.3
CCn1c(SCC(=O)NCc2ccccc2)nnc1-c1c[nH]c2ccccc12,/,/,/,5.3,/,0.698,/,2.7,0.4

# Shown tab-delimited: entries from further up
SMILES	rRNA inh HTS	rRNA inh HTS OD600	rRNA inh HTS RFP	UCH37 DUB inh	FGF22 binding	E coli growth	ALR H2O2 inh	Beta2AR agonist	HNF4A DNA FP
Cn1ncc2c(N3CCN(c4ccc(Cl)c(Cl)c4)CC3)ncnc21	3.5	1.6	-2.6	4.5	i	0.701	-3.5	5.3	-0.5
CCOCCCn1cnc2c(c1=O)c1nc3ccccc3nc1n2-c1ccccc1	20.4	14.3	-7.4	-93.5	i	0.665	/	-30.3	-1.9

# Next results
SMILES,rRNA inh HTS,rRNA inh HTS OD600,rRNA inh HTS RFP,UCH37 DUB inh,FGF22 binding,E coli growth,ALR H2O2 inh,Beta2AR agonist,HNF4A DNA FP
CCCCCSc1nnc2c(n1)OC(C)N(C(C)=O)c1ccccc1-2 (stereo unspecified),-0.7,8.5,-3.1,10.6,i,0.794,0.2,-11.5,0.4
Cc1cc(NC(=O)C2CC(=O)N(c3ccccc3)C2)no1 (stereo unspecified),/,/,/,0.5,/,0.676,/,-9.6,-2.1
COc1ccc(NC(=S)Nc2ccc(OC)cc2OC)c(OC)c1,/,/,/,-0.3,/,0.693,0.8,-6.2,1.4
COc1ccccc1C=C1CCc2ccccc2C1=O,-20.0,-32.0,-4.0,/,i,/,/,/,-1.7
COC(=O)C1=C(C)NC(=S)NC1c1ccc(OC(=O)c2ccco2)cc1 (stereo unspecified),8.2,6.0,1.5,6.1,i,0.688,11.3,7.3,-1.8
Cc1cc(NC(=O)c2cccs2)ncc1NC(=O)c1cccc(F)c1,-5.4,-1.7,-1.5,-1.5,i,0.67,-4.3,-15.8,-1.3
CS(=O)(=O)Nc1cccc(C2=NN(S(=O)(=O)c3ccccc3)C(c3cccs3)C2)c1 (stereo unspecified),-13.3,-14.0,3.8,1.6,i,0.717,/,-2.2,2.5
O=C1CCCCN1CCC(=O)N1CCCC(Nc2ccc(F)c(F)c2)C1 (stereo unspecified),10.4,2.8,0.8,4.0,i,0.679,21.3,-2.4,-4.0
COc1ccccc1CC(O)CC1c2c(cc3c(c2OC)OCO3)CCN1C (stereo unspecified),7.6,4.0,0.9,-0.4,i,0.626,/,-0.7,-0.8
Cn1c(=O)[nH]c(=O)c2c1nc(CN1CCOCC1)n2CCCc1ccccc1,4.5,4.1,-3.0,1.3,i,0.794,/,1.0,-2.4
COc1ccccc1N(C(C)=O)C1=C(Cl)C(=O)c2ccccc2C1=O,-8.7,-2.9,13.1,/,i,/,/,/,-0.9
CC1CCCC(NC(=O)COC(=O)CCc2ccccc2)C1C (stereo unspecified),1.3,4.2,1.0,0.0,i,0.653,-26.2,0.5,-3.7
O=C(CNC(=O)N1CC(=O)Nc2ccccc21)Nc1cc(Cl)ccc1Cl,-2.9,-1.4,-2.2,2.6,i,0.695,-17.1,-7.3,-2.2
Cc1cc(C(=O)Nc2sc3c(c2C#N)CCCC3)no1,-31.2*,-18.2*,-1.5*,4.3,i,0.677,96.8*,-7.9,3.4
O=C(Nc1cccc(C(F)(F)F)c1)c1cc(Br)cc2c1OCC2,1.0,-1.3,-3.3,4.1,i,0.681,-5.6,0.7,2.6
CC(=O)c1ccc(NC(=O)C2=CC(c3cccs3)=NS(=O)(=O)N2C)cc1,-21.1*,-13.4*,4.6*,6.9,i,0.629,-4.3,-3.2,4.8
Nc1cccc(-c2cn3cc(C(F)(F)F)cc(Cl)c3n2)c1,/,/,/,-5.2,/,0.709,98.9*,-17.1,-0.1
Cc1ccc(C)c(NC(=O)CSc2nnc(CNC(=O)c3cccs3)o2)c1,9.8,9.8,-0.3,1.6,i,0.718,0.9,-1.9,-1.0
CC(=O)NS(=O)(=O)c1ccc(NC(=S)NC(=O)c2ccco2)cc1,/,/,/,2.6,/,0.754,25.8,3.3,14.1
CCOC(=O)c1nn(-c2ccc(F)cc2)c(=O)cc1OCC(=O)Nc1cccc(C)c1,-1.3,1.3,-2.2,1.5,i,0.688,/,-0.6,5.8
CCOc1ccc(C(C)NC(=S)NCc2ccc(F)cc2)cc1 (stereo unspecified),-28.4,-38.2,-1.7,-2.0,i,0.734,46.4,-5.1,-1.4
COc1ccccc1NC(=O)c1ccccc1S(=O)(=O)c1ccccc1[N+](=O)[O-],4.5,-8.9,9.2,2.6,i,0.685,-18.5,7.7,-0.8
Cc1cc(C)c(NC(=O)c2ccc(S(=O)(=O)N(C)C)cc2)c(C)n1,19.4,1.1,-0.6,5.8,i,0.708,-3.4,4.2,0.3
CC1CCc2c(sc(NC(=O)CN3CCN(C(=O)c4ccco4)CC3)c2C#N)C1 (stereo unspecified),1.3,-2.4,-12.4,2.1,/,0.701,-10.4,-11.8,5.7
CCC(C)NC(=O)COc1ccc(Br)c(C)c1 (stereo unspecified),/,/,/,1.3,/,0.644,2.3,-1.7,0.4
CCN1C(=O)/C(=C\c2ccco2)C(C(=O)OC)=C1C,/,/,/,9.0,/,0.728,0.3,-3.8,0.7
COc1cccc(Oc2coc3cc(OC(=O)N4CCOCC4)ccc3c2=O)c1,7.2,14.8,1.4,-1.8,i,0.727,-2.9,0.7,-0.2
Cc1ccc(C(=O)CN2C(=O)NC3(CCCCCC3)C2=O)c(C)c1,8.2,5.3,-3.4,1.3,/,0.685,-1.2,7.1,5.1
CCn1c(-c2cccnc2Cl)nc2cc(Cl)c(Cl)cc21,/,/,/,-5.0,/,0.719,-5.6,-8.1,4.8
NC(CO)C(O)c1ccc([N+](=O)[O-])cc1 (stereo unspecified),/,/,/,-0.9,i,0.724,-15.1,3.2,1.0
O=C(Nc1cccc2ccccc12)OCc1cncs1,-13.1,-10.1,-8.4,-0.9,i,0.607,-5.9,-2.9,-4.2
Cc1onc(-c2ccccc2)c1CNS(=O)(=O)c1ccccc1,-28.0,-37.4,0.0,3.1,i,0.71,12.4,0.0,-2.6
CN(C)Cc1ccc(-c2nc3cccc4c3n2CCNC4=O)cc1,7.4,11.6,-1.5,-0.3,i,0.668,5.4,-6.2,3.6
CC(C)CNC(=O)COC(=O)c1cncc(Br)c1,/,/,/,-1.3,/,0.662,0.4,0.3,-2.2
O=C(c1ccc(Cl)cc1)N1CCn2c1nc1ccccc12,15.2,6.6,2.1,5.5,i,0.698,6.3,-6.5,-3.1
Cc1ccccc1OCC(=O)OCC(=O)NCC1CCCCC1,0.3,5.8,1.3,3.3,i,0.719,-1.4,-7.6,7.0
CCC1=C(OC(=O)N(CC)CC)N2C(=O)OC(=NCCOC)[C@]2(Cc2ccccc2)[C@H]2C1=CC[C@H]1C(=O)N(CC(=O)OC)C(=O)[C@H]12,8.1,14.0,-0.7,-1.0,i,/,-20.8,-4.2,4.0
CC(C)[C@H](NC(=O)[C@@H]1CSC2c3ccccc3C(=O)N21)C(=O)N1CCCCC1 (stereo partly specified),10.0,9.0,-0.8,7.0,i,0.715,-4.6,-4.5,3.4
CCNC(=O)NC(=O)CSc1ccc(NC(C)=O)cc1,/,/,/,5.5,/,0.683,-9.5,-2.8,-2.9

# Screening results: PubChem BioAssay, several laboratories
